Screening data as filed in PubChem BioAssay.
Calb FLC = affects C. albicans growth with fluconazole | 300,000 tested, 0.57% active | growth inhibition, % (test concentration not listed) | C. albicans CaCi-2 (fluconazole-resistant clinical isolate) + fluconazole, Alamar Blue growth, 48 h;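 active means most replicates above 75%; inconclusive means exactly half above 75%; inactive means most below 75%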;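 further: all wells also contain fluconazole at 8 µg/ml as a sub-toxic cotreatment; 0% = median of DMSO wells and 100% = median of geldanamycin control wells; wells of about 8 µL received 7.5 nL stock; the first replicate is given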
FGF22 binding = shifts melting point of recombinant human FGF22. recombinant FGF22 thermal shift, SYPRO orange fluorescence; percent of sucrose octasulfate shift, DMSO zero. calls only at 9.99 µM. 340,000 tested, 1.5% active. AID 651658;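 active means melting point raised past a set limit in the mean and every replicate; inconclusive means no clear call; three in four hits are not shown here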
Target sequence (Q9HCT0 whole entry, looked up): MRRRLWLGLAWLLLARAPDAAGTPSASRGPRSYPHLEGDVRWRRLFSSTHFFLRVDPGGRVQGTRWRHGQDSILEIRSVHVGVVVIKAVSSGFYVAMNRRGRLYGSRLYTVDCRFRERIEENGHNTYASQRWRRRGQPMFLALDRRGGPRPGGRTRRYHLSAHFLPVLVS
Beta apoptosis = beta cell apoptosis inhibition | INS-1E cytokine-induced death, ATP luminescence, 48 h; percent of positive-control rescue, neutral wells zero | protection from apoptosis, % (test concentration not listed) | 300,000 tested, 0.8% active | AID 435005;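 active means all replicates at 75% or more, or half of them and the mean; inconclusive means half reach 75% but not the mean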;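 further: 0% = cytokine-treated negative control wells and 100% = positive control rescue; higher means more ATP so stronger rescue from cytokine killing; wells of about 40 µL received 100 nL stock; the first replicate is given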
RanGTP-Impb inh = inhibitors of RanGTP-importin-beta interaction, primary screen, biochemical, FRET, CFP-Ran, YFP-importin-beta, homogeneous; inhibition, % (no concentration beside the values); 300,000 tested, 1.1% active; AID 2216; cell-free CFP-Ran/YFP-importin-beta FRET ratio;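 active means most replicates above 15%; inconclusive means exactly half above 15%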;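 further: 0% = DMSO wells and 100% = Ran loaded with GDP instead of GTP; wells of about 40 µL received 100 nL stock; the first replicate is given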
AF4-AF9 inh = MLL-AF4/AF9 protein interaction inhibition. AlphaScreen, biotin-AF4 peptide binding to FLAG-AF9. inhibition, % at 10 µM. 350,000 tested, 0.47% active;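 active means every replicate reaching a set inhibition limit, whatever the replicate mean, cut at about 25% in these data; inconclusive means mean inhibition reaches that limit but some replicates miss it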;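 further: 0% = plate neutral control median and 100% = total signal loss; the record names both 10 and 1 µM as test concentration; the first replicate is given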
Target sequence (P42568 whole entry, looked up): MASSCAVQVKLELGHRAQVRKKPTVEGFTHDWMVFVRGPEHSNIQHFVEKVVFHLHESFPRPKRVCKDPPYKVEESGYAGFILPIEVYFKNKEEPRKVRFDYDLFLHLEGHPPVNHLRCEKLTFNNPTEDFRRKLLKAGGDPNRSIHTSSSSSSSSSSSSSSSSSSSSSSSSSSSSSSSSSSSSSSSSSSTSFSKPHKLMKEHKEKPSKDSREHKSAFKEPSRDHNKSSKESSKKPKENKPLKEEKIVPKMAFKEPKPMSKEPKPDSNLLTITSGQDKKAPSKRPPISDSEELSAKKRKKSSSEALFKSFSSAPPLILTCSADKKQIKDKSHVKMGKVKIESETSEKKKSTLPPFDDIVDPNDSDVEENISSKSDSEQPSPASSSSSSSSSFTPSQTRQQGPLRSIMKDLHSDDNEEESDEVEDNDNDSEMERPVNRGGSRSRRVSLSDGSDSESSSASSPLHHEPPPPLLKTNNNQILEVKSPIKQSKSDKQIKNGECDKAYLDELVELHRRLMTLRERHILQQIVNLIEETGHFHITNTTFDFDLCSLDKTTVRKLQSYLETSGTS
T cruzi inh = T. cruzi replication inhibition; T. cruzi beta-gal in NIH3T3, luminescence, 90 h; inhibition, % (no concentration beside the values); 300,000 tested, 1.4% active; AID 1885;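 active means mean inhibition across valid replicates above about 55%, limit read from the data; inconclusive means mean below that limit but half or more replicates reach it; inactive means mean below it, under half of replicates reach it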;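 further: signal also drops with host cell toxicity which is not excluded here; 0% = plate median of DMSO wells and 100% = zero luminescence signal; higher percent means less beta-gal luminescence so fewer parasites; stock transfer was 50 nL into about 50 µL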
ALR inh = blocks human ALR sulfhydryl oxidase activity. purified ALR, DTT oxidation, H2O2 HRP-luminol luminescence. AID 485317. P55789. 290,000 tested, 3.8% active. inhibition, % (test concentration not listed);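 active means mean and each replicate at 75% or more; inconclusive means only one of the two met; inactive means neither met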;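 further: stock transfer was 7.5 nL into about 7.5 µL; 0% = neutral wells and 100% = wells with inactivated enzyme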
Target sequence (P55789 whole entry, looked up): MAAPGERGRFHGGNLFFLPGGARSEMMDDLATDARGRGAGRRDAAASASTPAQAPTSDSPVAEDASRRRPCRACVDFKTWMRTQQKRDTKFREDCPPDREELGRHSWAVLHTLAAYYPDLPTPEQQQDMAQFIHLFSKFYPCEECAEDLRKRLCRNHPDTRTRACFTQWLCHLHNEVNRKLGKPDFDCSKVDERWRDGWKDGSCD
rRNA inh HTS = inhibits bacterial ribosomal RNA function over humanized ribosomes. AID 720706. 350,000 tested, 1.6% active. E. coli WT GFP vs humanized-ribosome RFP mutants, fluorescence, 24 h; active compounds read low; DMSO median 0, no signal -100. GFP signal change (wild-type ribosome), % (no concentration beside the values);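 active means significant combined selectivity score with lowered wild-type GFP, culture density cut under 30%, mutant RFP and density less affected; inactive means any of these conditions unmet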; further: one replicate is shown; some compounds called inactive have numbers as strong as hits
rRNA inh HTS OD600 = recorded beside rRNA inh HTS, whose call it bears; OD600 change, %; measured here: OD600 growth;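 optical density of the mix in the first replicate; 0 = DMSO median and -100 = no signal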
rRNA inh HTS RFP = recorded beside rRNA inh HTS, whose call it bears; RFP signal change, %; measured here: RFP humanized mutant strains;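 first replicate; 0 = DMSO median and -100 = no signal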
An asterisk follows results filed as active; i = inactive; ? = inconclusive; / = not tested or not shown.

SMILES	Calb FLC	FGF22 binding	Beta apoptosis	RanGTP-Impb inh	AF4-AF9 inh	T cruzi inh	ALR inh	rRNA inh HTS	rRNA inh HTS OD600	rRNA inh HTS RFP
Cc1ccc(C)c(S(=O)(=O)Nc2ccc(C(=O)NCC(c3ccco3)N(C)C)cc2)c1 (stereo not drawn)	-2	i	-5	-0.1	-16	0	3	0	2	2.9
Cc1ccc(O)c(NC(=O)C2=CC(c3ccco3)=NS(=O)(=O)N2C)c1	17	i	-8	0.0	7.3	-7	10	-2	0	-1.0
Clc1ccc(OCc2nnc3n2N=C(c2ccc4c(c2)OCCO4)CS3)c(Cl)c1	1	/	4	3.3	/	29	0	/	/	/
c1ccc(C(c2nnnn2C2CCCC2)N2CCN(c3nc4ccccc4s3)CC2)cc1 (stereo not drawn)	-4	/	-5	6.1	/	71*	1	/	/	/
O=C(N=C1SC2CS(=O)(=O)CC2N1Cc1ccccc1Cl)C1CCCO1 (stereo not drawn)	-8	i	-3	-4.6	-1.5	-10	18	8	9	-1.7
CCSc1nc(C2CC2)cc(-c2ccco2)c1C#N	37	/	-11	-2.6	/	3	9	/	/	/
CCOC(=O)C1(CCc2ccccc2)CCN(Cc2ccc(OC)cc2)CC1	-25	i	7	1.2	0.2	17	-11	15	-2	-2.8
Cc1ccc(C(=O)Nc2ccc(Cl)cc2C(F)(F)F)c(Cl)c1	0	i	4	-5.5	0.2	5	/	/	/	/
Cc1ccc(-c2nc(NC(=O)CSc3nnc4scc(-c5ccccc5)n34)ns2)cc1	5	i	35	10	-0.8	-4	0	7	16	-2.2
CSc1nnc(SCC#N)s1	-30	i	-2	?	-8.2	-5	-2	6	3	0.8
CC1(C)C2CCC1(CS(=O)(=O)N1CCC(C(N)=O)CC1)C(=O)C2 (stereo not drawn)	-2	i	5	-1.0	-0.7	-7	3	8	10	-0.1
CC(Cc1cccnc1)NC(=O)c1cc(COc2ccc(F)cc2Cl)on1 (stereo not drawn)	-10	i	-1	0.4	0.2	2	-2	/	/	/
Cc1ccc(N2C(=O)C3C4C=CC(CC4)C3C2=O)c([N+](=O)[O-])c1 (stereo not drawn)	-2	i	-4	0.5	-0.8	0	-5	0	-2	-5.6
COc1ccc(C)cc1NCc1cccc(OC)c1OC	24	/	1	1.8	/	-1	57	/	/	/
COc1ccc2c(c1)Sc1ccccc1N2CCN(C)C	-20	/	-5	-1.5	/	13	98*	/	/	/
CCSC(C)CC1C/C(=N/O)c2c(CC)noc2C1 (stereo not drawn)	12	i	4	4.6	-7.1	4	-5	-8	9	-4.4
COc1ccc(OC)c(-n2nnnc2SCC(=O)Nc2ccccc2OC)c1	0	i	-3	-5.3	1.5	8	-16	-16	-13	3.3
O=C(O)CC(SCC(=O)NC1CCCc2ccccc21)C(=O)O (stereo not drawn)	-5	i	-2	-0.9	-5.8	-3	-26	5	-4	-11
COc1ccc(OC)c(C(=O)CSc2nccc(-c3ccc(Br)cc3)n2)c1	15	/	-8	8.0	/	29	-16	/	/	/
COc1cc(OC)cc(-c2oc(=O)c3cc(OC)c(OC)cc3c2C#CCCO)c1	/	i	6	/	/	/	2	-3	4	-2.3
Oc1cc(Br)ccc1C=Nc1ccc(N2CCCCC2)cc1	8	i	15	0.8	-5.6	46	19	7	5	0.5
O=C(O/N=C/c1ccc(Br)cc1)c1ccc(F)cc1	-16	i	-1	1.5	-9.2	-9	-6	15	18	5.5
COC(=O)Cc1[nH]nc2c1C(c1c[nH]c3ccccc13)C(C#N)=C(N)O2 (stereo not drawn)	24	/	-9	45*	/	-17	-2	/	/	/
CSc1ccccc1-c1nnc(-c2ccc(Cl)cc2)o1	-3	/	0	-1.2	/	-5	/	/	/	/

4 compounds from above with just FGF22 binding, T cruzi inh and AF4-AF9 inh.
| Compound | FGF22 binding | T cruzi inh | AF4-AF9 inh |
| --- | --- | --- | --- |
| COc1cc(OC)cc(-c2oc(=O)c3cc(OC)c(OC)cc3c2C#CCCO)c1 | i | / | / |
| CSc1ccccc1-c1nnc(-c2ccc(Cl)cc2)o1 | / | -5 | / |
| O=C(O)CC(SCC(=O)NC1CCCc2ccccc21)C(=O)O (stereo not drawn) | i | -3 | -5.8 |
| COc1ccc(OC)c(C(=O)CSc2nccc(-c3ccc(Br)cc3)n2)c1 | / | 29 | / |

Additional structures follow:
SMILES	Calb FLC	FGF22 binding	Beta apoptosis	RanGTP-Impb inh	AF4-AF9 inh	T cruzi inh	ALR inh	rRNA inh HTS	rRNA inh HTS OD600	rRNA inh HTS RFP
CCCN(Cc1ccccc1)C(=O)Nc1ccc2c(c1)nnn2C	23	i	-6	4.4	5.9	-16	-31	-2	-1	0.0
C[C@@H](C(=O)Nc1ccccc1N1CCOCC1)N1C(=O)C2CCCCC2C1=O (stereo partly drawn)	/	i	-6	/	1.2	/	-8	-3	-1	-1.0
Cn1cnc(S(=O)(=O)Nc2ccc(OC(F)F)cc2)c1	15	i	1	2.3	-1.7	5	-1	7	7	7.0
Cc1cc(C(F)(F)F)n2ncc(C(=O)O)c2n1	-10	i	-8	4.2	1.9	-1	-15	12	20	0.0
CCOc1ccc(NC(=O)C2CCCN(C(=O)Nc3ccccc3)C2)cc1 (stereo not drawn)	10	/	1	8.2	/	0	-24	/	/	/
Cc1ccc(Oc2ccc(OCC(=O)NC(C)C(=O)O)cc2)cc1 (stereo not drawn)	-1	/	-8	1.6	/	-2	0	-2	-8	-1.5
CC(C)n1c(Oc2ccc(F)cc2)nc2c1c(=O)n(C)c(=O)n2C	-17	i	-10	-5.0	-0.4	4	-22	5	0	-1.2
CNC(=O)C(=O)NCCC1CCCCN1S(=O)(=O)c1cccs1 (stereo not drawn)	-6	i	/	2.0	-0.7	-3	-6	14	0	2.1
CCOC(=O)c1c(NC(=O)CSc2nc3ccccc3s2)sc(C(C)=O)c1C	-20	i	-2	0.5	-6.3	-1	/	-5	4	5.8
CCNC(=O)CON=C1c2ccccc2-c2ccccc21	0	i	3	0.6	-2.9	-8	/	-19	-25	0.5
COc1cc(OC)cc(C(=O)Nc2cccc3nc(C)ccc23)c1	-1	i	/	3.0	3.2	-6	-1	2	-8	0.2
COC(=O)c1sccc1NC(=O)CC1C(=O)NCCN1C(=O)c1ccc(N(C)C)cc1 (stereo not drawn)	-1	i	3	7.3	-3.3	-6	3	-6	-3	4.1
CN1CCN(CCCNC(=O)c2ccc(CSCc3cccc(Cl)c3)o2)CC1	-1	/	-4	-2.9	/	23	43	/	/	/
COc1ccc(OC)c(CN(CCN2CCOCC2)C(=O)Nc2ccccc2)c1	13	/	0	2.0	/	-8	/	/	/	/
Cc1ccc(-c2cn3cc(C)ccc3n2)cc1	-25	i	0	/	-2.5	/	-4	21	-9	-1.5
CCn1cc(S(=O)(=O)Nc2cc(C(=O)OC)ccc2C)cn1	15	i	-2	32*	-4.8	-6	-1	-3	7	-5.5
COc1ccc(C(C)(C)C)cc1NC(=O)CN1C(=O)C(=O)N(Cc2ccco2)C1=O	/	i	-1	/	6.3	/	13	5	4	-2.2
CCOc1ccc(N=C2C(=O)Nc3ccc(C)c(Br)c32)cc1	-8	i	4	7.2	14	9	-12	-1	-9	-1.8
Cn1c(/C=N/Nc2nc3ccccc3[nH]2)nc2ccccc21	80	i	18	5.0	14	51	43	-6	-5	-5.8
COC(=O)c1ccc(C2c3c(oc4cc(C)c(C)cc4c3=O)C(=O)N2CCCN(C)C)cc1 (stereo not drawn)	-1	/	-2	-0.2	/	-18	/	/	/	/
Cc1cc2c3c(c1)C(C)CC(C)(C)N3C(=O)C2=C(C#N)C#N (stereo not drawn)	4	i	1	6.2	0.9	25	0	8	-3	1.2
CC1CC(=O)Nc2ccccc2N1C(=O)CSc1nnnn1C (stereo not drawn)	/	i	-5	/	-1.5	/	5	3	6	-3.0
O=c1ccc(-c2ccc([N+](=O)[O-])cc2)nn1-c1ccccc1	-11	i	2	-1.3	-1.5	-16	7	21	15	2.3
Cc1cc(NN)nc(Cc2ccccc2)n1	-7	i	-3	-4.5	-1.7	1	81*	10	4	4.1
c1ccc(C2C/C(=N\N3CCOCC3)c3ccccc3O2)cc1 (stereo not drawn)	-2	i	-14	1.6	1.1	21	/	-7	-2	-4.3
CCn1c(SCC(=O)Nc2cc(C)on2)nnc1-c1ccc(S(=O)(=O)N2CCN(C)CC2)cc1	-9	/	-2	-1.4	/	-5	-3	/	/	/
CCc1onc(C)c1C(=O)O	0	i	-4	2.2	-11	-5	0	6	1	3.6
CC(C)N1C(=O)S/C(=C\c2ccc(-c3ccc(Cl)c(C(=O)O)c3)o2)C1=O	52	i	/	26*	-5.3	-2	8	-29	-42	-1.4
COCCCn1c(=NC(=O)c2ccncc2)c(C#N)cc2c(=O)n3cccc(C)c3nc21	25	/	/	68*	/	1	-2	/	/	/
CC(=O)c1cccc(NC2c3ccccc3C(=O)N2Cc2ccc3c(c2)OCO3)c1 (stereo not drawn)	0	i	1	-1.2	-7.6	2	-3	1	1	-3.6
O=C(CSc1n[nH]c(=O)n1-c1ccccc1)N1CCOCC1	31	i	7	7.2	-4.2	-10	2	6	-3	2.0
CCOP(=O)(c1ccc(N(C)C)cc1)C(O)c1cc(OC)c(OC)c(OC)c1 (stereo not drawn)	-1	/	0	2.9	/	0	1	/	/	/

These rows are one share of the data; rates above refer to the full screens.
